Bst PK mod: alters activity of Bacillus stearothermophilus pyruvate kinase | partly purified Bacillus stearothermophilus pyruvate kinase, luminescence ATP production; ribose 5-phosphate activator present at AC10 | Potency, µM | 51,000 compounds, 1.2% hits | AID 361; in the data active means potency below about 11 µM; inconclusive means mostly about 12 µM to 25 µM; inactive means weaker than that;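 the screen sought inhibitors and activators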;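 further: potency means the concentration at half of the fitted maximal effect; scaled between full activation by ribose 5 phosphate and full inhibition by luteolin; about four in five hits inhibit and the cells do not say which; series up to 57 µM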
YjeE inh: inhibitors of E. coli YjeE (TsaE); P0AF67; purified YjeE, fluorescence polarisation of a bound ADP probe; Potency, µM; 71,000 compounds, 0.05% hits; active = well fitted falling curve; inconclusive = weaker or top-dose-only fall, or a rising curve; inactive = flat or poorly fitted curve;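 further: top concentration of the series not given in the record; excess ADP was the control for the full effect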
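Purified YjeE (10 uM) with BODIPY Texas Red-labeled ADP probe (2 uM); compounds pin-transferred, 15 min at room temperature. Binding inhibition read as decreased fluorescence polarization; ADP titration as control.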
An asterisk follows results filed as active; i = inactive; . = not tested or not shown. These rows are one share of the data, so the mix of outcomes need not match the whole.

The opening 3 entries, to show the layout:
canonical_smiles,Bst PK mod,YjeE inh
O=C(CSC1=NC(=O)C(Cc2ccccc2)C(=O)N1)Nc1ncccn1 (configuration not stated),.,i
Cc1n[nH]c(C)c1Cc1ccc(C(=O)O)cc1,>57,i
Cc1ncoc1C(=O)Nc1cccc(Cl)c1,>57,i

Main list, previewed entries included:
canonical_smiles,Bst PK mod,YjeE inh
O=C(CSC1=NC(=O)C(Cc2ccccc2)C(=O)N1)Nc1ncccn1 (configuration not stated),.,i
Cc1n[nH]c(C)c1Cc1ccc(C(=O)O)cc1,>57,i
Cc1ncoc1C(=O)Nc1cccc(Cl)c1,>57,i
O=C(Nc1ccccn1)c1c(O)c2cccc3c2n(c1=O)CCC3,>57,i
O=C(O)C1CCNCC1,.,i
Cc1cc(C)nc(N(C#N)CN2C(=O)c3ccccc3S2(=O)=O)n1,>57,i
O=C(CN1CCN(c2ccccc2)CC1)Nc1ccccc1C(F)(F)F,>57,i
COc1ccc(-c2ccc(CCC(=O)O)n2C(C)C)cc1,>57,i
Cc1cc(C)c(NC(=O)CS(=O)CC(=O)N2CCN(c3ccccc3)CC2)c(C)c1 (configuration not stated),>57,i
CCOC(=O)c1[nH]c2ccc(F)cc2c1NC(=O)CN1CCc2cc(OC)c(OC)cc2C1,>57,i
CCN(CC)CCn1c(-c2ccccc2)nc2c(N3CCOCC3)nc(C)nc21,.,i
CCOC(=O)c1cc2c(=O)n3ccccc3nc2n(Cc2ccccc2Cl)c1=N,>26,.
COC(=O)c1ccc(CSc2ccccc2C)o1,>57,i
CCN(CCCNC(=O)C1CCN(S(=O)(=O)c2cccc3nonc23)CC1)Cc1ccccc1,>57,i
O=C(O)CCCc1ccc2ccccc2c1,.,i
Cc1ccc2nc(-c3ccccc3Cl)cc(C(=O)Nc3cc(C)on3)c2c1,>57,i
NC(=O)c1ccccc1-c1nc(-n2ccnc2)c2ccccc2n1,.,i
O=C(O)CCC(=O)N(Cc1cccs1)Cc1cccs1,>57,i
Cc1ccc(C(=O)N2CCN(C)CC2)cc1S(=O)(=O)N1CCCCC1,>57,i
COc1ccc(NC(=O)N2CCC(O)(c3cccnc3)CC2)c(OC)c1,>57,i
CCCC[C@@H]1C[C@H]1C(NC(=O)c1ccco1)c1ccc(C(=O)OC)cc1 (some centres not stated),.,i
CCCC1=[N+](CC)CCn2c(C)ccc21,>57,i
O=C(Nc1ccncc1)c1cccs1,.,i
Cc1cc(C)cc(N(CC(=O)NC2CCC(C)CC2)S(=O)(=O)c2c(C)noc2C)c1 (configuration not stated),.,i
C=CCN=C(NC#N)SCC(=O)NC(C)(C)C,>57,i
O=C(c1cccc(F)c1)N1CCC2(CCN(Cc3cc(C(F)(F)F)cc(C(F)(F)F)c3)CC2)CC1,.,i
Cc1cnc(CNc2ccnc(-c3c(C)noc3C)n2)cn1,.,i
O=c1cc(N2CCCC2)[nH]c(=O)n1-c1ccc(Cl)cc1,>57,i
O=C(O)C(Oc1ccc2c3c(c(=O)oc2c1)CCC3)c1ccccc1 (configuration not stated),>57,i
CCn1c(N)c(C(N)=O)sc1=S,.,i
COc1ccc(CN2CC(C(=O)NCCCN3CCCCCC3)CC2=O)cc1 (configuration not stated),>57,i
COc1ccccc1N1CCN(C(=O)c2cc(-c3cccs3)on2)CC1,>57,i
CSc1oc(-c2ccc(F)cc2)nc1S(=O)(=O)c1ccccc1,>57,i
O=C1c2ccccc2C(=O)N1CCCc1nc(-c2ccc(Cl)cc2)no1,.,i
Cc1ccc2nc(C)c(C)nc2c1N,.,i
N#Cc1cccc(NC(=O)N2CC[C@@]3(CCCN(C(=O)c4csnn4)C3)C2)c1,.,i
O=C(CSC1=NCCS1)N1CCN(c2ccccc2)CC1,>57,i
COc1ccc(CNc2ncncc2-c2ccc3c(c2)OCO3)c(OC)c1,.,i
O=C(COC(=O)c1cnccn1)c1ccc(Br)cc1,.,i
CCOc1ccc2cc(S(=O)(=O)N3CCOCC3)ccc2c1,>57,i
CCn1nnc(-c2ccccc2NC(=O)c2cc(OC)c(OC)c(OC)c2)n1,>57,i
COc1ccc(OC)c(C2C(C(C)=O)=C(O)C(=O)N2c2ccc(F)cc2)c1 (configuration not stated),.,i
O=S(=O)(c1cccc(-c2csc(-c3cccnc3)n2)c1)N1CCCCC1,>57,i
CN(Cc1ccco1)c1ncncc1-c1ccoc1,.,i
CC(=O)c1c(C)[nH]c(C(=O)Nc2c(C)n(C)n(-c3ccccc3)c2=O)c1C,>57,i
CCOC(=O)C1C2C=CC3(CN(Cc4ccco4)C(=O)C13)O2 (configuration not stated),>57,i
CN1CCCN(C)C1c1cc([N+](=O)[O-])ccc1O,.,i
Cc1cnc(CNc2ncnc3ccc(-c4ccc(N(C)C)cc4)cc23)cn1,.,i
CC(O)(C#CCN1CCCC1)c1ccccc1 (configuration not stated),.,i
COC(=O)NC1CSCC1OC(=O)c1ccc(Br)cc1 (configuration not stated),i,i
O=C(Nc1ccc2c(c1)OCCO2)c1ccc(Cl)c(S(=O)(=O)N2CCOCC2)c1,>57,i
Cc1ccc2[nH]c(C)c(CN(C)C3CCN(C)CC3)c(=O)c2c1,>57,i
COC(=O)C1=C(C(=O)c2ccccc2)C(c2cccs2)n2nnnc2N1 (configuration not stated),>57,i
CC(=O)Nc1cc(NC(C)=O)cc(C(=O)NC(C)(C)C)c1,>57,i
O=C(C(Cc1ccccc1)n1cccc1)N1CCc2ccccc21 (configuration not stated),.,i
N#CC1=C(N)N2C(=C(C#N)C1c1ccccc1)Sc1ccccc12 (configuration not stated),>26,.
CCCC[C@@H]1C[C@H]1C(NC(=O)c1ccco1)c1ccc(-c2ccccc2)cc1 (some centres not stated),.,i
COC(=O)c1cc(=O)[nH]c(SCc2cccc(C)c2)n1,.,i
Cn1c(=O)cc(SCC(=O)N2CCN(C3CCCCC3)CC2)c2ccccc21,.,i
O=C(CSc1ccc2nnc(-c3ccc(Cl)cc3)n2n1)N1CCN(c2ccccc2)CC1,.,i

The results go on.
canonical_smiles,Bst PK mod,YjeE inh
COc1ccc(C2/C(=C(/O)c3ccc(Cl)cc3)C(=O)C(=O)N2CCN2CCOCC2)c(OC)c1 (configuration not stated),>57,i
Cc1ccc(CNc2ccc3c(c2)OCO3)cc1,>57,i
Cc1cccc(OCC(=O)NCC(=O)n2nc(C)cc2C)c1,>26,.
CC(=O)C1=C(O)C(=O)N(c2cccc(C(=O)O)c2)C1c1ccccc1F (configuration not stated),>26,.
COc1cc2c(cc1OC)-c1nncn1C(C)(C)C2,>57,i
O=C(O)CC[C@]1(C(=O)O)CCC(=O)c2ccccc21,.,i
CCCCCCSc1cc(C)nc2ncnn12,.,i
CC(C)(C)c1cc(C(=O)NCc2cccnc2)ccn1,>57,i
O=C(Nc1cccc(F)c1)c1ccc(S(=O)(=O)N2CCOCC2)cc1,.,i
COCCNc1nc(-c2ccc(N(C)C)cc2)nc2ccccc12,.,i
CN1CCN(Cc2nc3c([nH]2)c(=O)[nH]c(=O)n3C)CC1,>57,i
CC(=O)c1c(C)[nH]c(C(=O)CSc2nnc(-c3ccco3)n2Cc2ccccc2)c1C,>57,i
COC(=O)C(C#N)c1nc2ccccc2nc1N1CCCC1 (configuration not stated),>57,i
O=C(OCCCN1C(=O)c2ccccc2C1=O)c1ccco1,>57,i
O=C(NCc1ccccc1Cl)C1CCN(S(=O)(=O)N2CCCCCC2)CC1,>57,i
FC(F)(F)c1nnc2ccc(-n3ccnc3)nn12,.,i
CCCC(CCC)C(=O)NCCN1CCOCC1,>57,i
COc1cc(C#N)ccc1OCC(=O)c1ccc2c(c1)OCCO2,>57,i
CC(NC(=O)c1ccc(N(C)C)cc1)C(c1cccs1)N1CCN(C)CC1 (configuration not stated),>57,i
CC(=O)Nc1c(C(=O)c2ccccc2)oc2ccccc12,>57,i
CN(C)CCN1C(=O)c2oc3ccccc3c(=O)c2C1c1ccccc1 (configuration not stated),>57,i
O=C(NCc1ccco1)c1cccc(NC(=O)c2ccccc2)c1,>57,i
O=C(CSc1nnc(-c2ccco2)n1-c1ccccc1)N1CCc2ccccc21,>57,i
Clc1cc(Br)ccc1OCCOCCN1CCOCC1,.,i
CN1CCc2c(c3c(n2C)CCN(C)[C@@H]3c2cccnc2)[C@H]1c1cccnc1,>26,.
C=CCn1c(=S)[nH]c2ccc(Br)cc2c1=O,>57,i
C=CCn1cc(C(=O)NCCCOC)c(=O)c2cc(S(=O)(=O)N(CC)CC)ccc21,>57,i
COc1ccc(Cl)cc1C(=O)NCC(c1ccco1)N1CCCC1 (configuration not stated),>57,i
NC(=O)NC(=O)COC(=O)c1ccccc1Oc1ccccc1,>11,i
COc1ccccc1-c1cncnc1NCc1cccnc1,.,i
CC(=C1C(=O)c2ccccc2C1=O)N1CCN(Cc2ccccc2)CC1,>57,i
CCN(CC)c1cc2nonc2c2nonc12,>57,i
Cc1ccc(C(C)NC(=O)C2CCCO2)cc1C (configuration not stated),>57,i
CCCCCn1c(CNC(=O)c2cccs2)nc2ccccc21,>57,i
CC(C)OCCCNC(=O)c1c(N)n(/N=C/c2ccccn2)c2nc3ccccc3nc12,>57,i
CCC(C)(NC(=O)CNC(C)=O)C(=O)NC1CCCCC1 (configuration not stated),>57,i
CC(C)c1c(O)nc(SCc2ccccc2)[nH]c1=O,>57,i
CCOC(=O)c1ccccc1NC(=O)C(C)Oc1ccccc1 (configuration not stated),.,i
N#CCCn1c(=O)c(-c2ccc(Cl)cc2)nc2cnc(OCc3ccccc3)nc21,.,i
COc1cc(N)c(Cl)cc1C(=O)OCCCN1CCCCC1,.,i
N=c1c(S(=O)(=O)c2ccc(Cl)cc2)cc2c(=O)n3ccccc3nc2n1CCN1CCOCC1,>57,i
Cc1cc(NC(=O)COC(=O)c2c(C)nn(-c3ccccc3)c2C)no1,>57,i
CCS(=O)(=O)NCCc1csc(C)n1,>57,i
CCCN1CCN(CCCNC(=O)Cn2nc(-c3ccccc3)ccc2=O)CC1,>57,i
Cc1ccc(Cn2nnc3c(=O)n(CC(=O)NCC4CCCO4)cnc32)cc1 (configuration not stated),>57,i
CCOC(=O)c1ccc2ncc(C(=O)OCC)c(NCCCN3CCOCC3)c2c1,.,i
COc1ccc(Cl)cc1S(=O)(=O)N1CCN(CC(=O)C(C)(C)C)CC1,>57,i
COc1cccc(-c2nnc3n2N=C(c2cccc(Br)c2)CS3)c1,>57,i
COc1ccc(C(=O)NCC(=O)NC2=NCCS2)cc1,.,i
O=C(COc1ccc2ccccc2c1)N1CCN(c2ccccc2O)CC1,.,i
Cc1ccc(CO)cc1,.,i
C1CCc2c(nc3nnnn3c2N2CCOCC2)C1,>57,i
COC(=O)C1(CCSC)NC(c2ccco2)C2C(=O)N(C)C(=O)C21 (configuration not stated),>57,i
COC(=O)c1cc(=O)nc2sc3ccccc3n12,.,i
CCOCCCn1c(=S)[nH]c2ncccc2c1=O,>57,i
CN(C)C(=O)Cn1c(=O)n(C)c2ccccc21,>57,i
O=C(CN1C(=O)c2ccccc2S1(=O)=O)Nc1cccnc1,>57,i
CCOc1ccc(C2C(C#N)=C(N)Oc3nc[nH]c(=O)c32)cc1OC (configuration not stated),>57,i
O=C(CCn1c(=O)oc2ccccc21)NCCCN1CCCC1=O,.,i
C[C@]12CC[C@H]3c4ccc(O)cc4CC[C@@H]3[C@H]1CC[C@@H]2OC(=O)CCc1ccccc1,.,i

Sorted by heavy-atom count (falling): some entries from above.
canonical_smiles,Bst PK mod,YjeE inh
O=C(CN1C(=O)c2ccccc2S1(=O)=O)Nc1cccnc1,>57,i
COC(=O)c1cc(=O)nc2sc3ccccc3n12,.,i
CN(C)C(=O)Cn1c(=O)n(C)c2ccccc21,>57,i

(continued)
canonical_smiles,Bst PK mod,YjeE inh
Nc1nonc1-c1noc(-c2ccccc2)n1,>26,.
CC(C)(C)N1CC(COc2ccccc2)OC1=O (configuration not stated),>57,i
CC(c1ccccc1)n1cc(C(=O)NCc2ccncc2)nn1 (configuration not stated),>57,i
Cn1c(=O)cc(OCCCC(=O)NCc2ccccn2)c2ccccc21,>57,i
Cn1c(N)c(S(=O)(=O)c2ccc(Br)cc2)c2nc3ccccc3nc21,>57,i
Cc1cccc(C)c1NC(=O)CSc1nnc([C@H](C)NC(=O)OC(C)(C)C)o1,>57,i
CCOC(=O)N1CCN(C(=O)CSc2nnc(Cc3ccccc3)o2)CC1,.,i
COC(=O)CSC1=C(C#N)C(c2ccc(Cl)cc2)C(C(=O)OC)C(=O)N1 (configuration not stated),>57,i
Brc1cccc(-c2n[nH]c(-c3ccccc3)n2)c1,>57,i
Cn1c(=O)c2c(nc(SCc3cccnc3)n2Cc2ccc(F)cc2)n(C)c1=O,>57,i
CCNc1ncc2nc(-c3cccs3)c(=O)n(-c3ccc(OC)cc3)c2n1,.,i
O=C(O)c1cc(=O)cc(C(=O)O)[nH]1,>57,i
Cc1ccc(S(=O)(=O)N2CCCC(C(=O)N(Cc3cccs3)C3CC3)C2)cc1 (configuration not stated),.,i
